# SARS PLP yeast – qHTS of Yeast-based Assay for SARS-CoV PLP; S. cerevisiae expressing SARS-CoV PLpro, growth rescue; control for the full effect not named in the record; Potency, µM (top dose mostly 32.9 µM), inactives show top-dose activity, positive = growth rescue; actives 0.19% (n = 330,000); AID 485353, 2010; active means well fitted rising curve with a large enough effect; inconclusive means small, poorly fitted or top-dose-only effect; inactive means no such curve, though single readings can be large or run the other way; note: 0% is about no effect; nearly all actives have a fitted effect of over 55% in size; growth read by luminescence after 48 h
# RE007 growth inh – qHTS Assay for Inhibitors of the HIV-1 protein Vpr; S. pombe RE007 Vpr strain, BacTiter-Glo ATP luminescence, 24 h; control for the full effect not named in the record; Potency, µM (top dose mostly 92.2 µM), without a hit: at the top dose activity change, negative = less growth; actives 0.21% (n = 360,000); active = well fitted falling curve with a large enough effect; inconclusive = small, poorly fitted or top-dose-only effect; inactive = no such curve, though single readings can be large or run the other way;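 note: % is set by controls: 0 for no effect and ±100 for the full control effect; nearly all actives have a fitted effect of over 50% in size; the assay follows cell death caused by Vpr and the record does not say whether a fall means rescue or toxicity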
#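 Fission yeast strain RE007, carrying one chromosomally integrated HIV-1 vpr copy, was seeded at OD 0.01 in PMG+AL medium with 23 nL pinned compound. After 24 h at 30 °C and 99% humidity, viability was read by BacTiter-Glo luminescence.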
# StopGo reporter – High Throughput Screening for Foot and Mouth Disease Virus Antivirals | human cells with a luciferase reporter of 2A StopGo recoding; control for the full effect not named in the record | Potency, µM (titrated, usually from 57.9 µM), for the others: at the highest dose signal change, negative = less light | actives 1.2% (n = 410,000) | AID 1159524, 2015; active = well fitted falling curve with a large enough effect; inconclusive = small, poorly fitted or top-dose-only effect; inactive = no such curve, though single readings can be large or run the other way; tested in HEK293T cells; note: % is set by controls: 0 for no effect and ±100 for the full control effect; nearly all actives have a fitted effect of over 45% in size; luciferase light after 4 h
# LASV entry inh – qHTS for Inhibitors of binding or entry into cells for Lassa Virus; Lassa virus pseudotype entry inhibition, cell reporter; control for the full effect not named in the record; Potency, µM (highest dose often 37.9 µM), for the others: at the highest dose activity change, negative = inhibition, actives largely listed as inhibitors; actives 1.2% (n = 300,000); active means well fitted inhibition curve with a large enough effect; inconclusive means small, poorly fitted or top-dose-only effect, or effect the other way; inactive means flat fitted curve, though single readings scatter; tested in HEK293 cells; note: % is set by controls: 0 for no effect and ±100 for the full control effect; nearly all actives have a fitted effect of over 50% in size; luciferase read-out
# Cruzain inh Det – qHTS Assay for Promiscuous and Specific Inhibitors of Cruzain (with detergent). purified cruzain, Z-FR-AMC fluorescence, 0.01% Triton. actives 0.43% (n = 200,000). Potency, µM, for inactives: max response, negative = inhibition, most hits filed as inhibitors. Cruzipain (Trypanosoma cruzi), P25779;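 note: plate controls were neutral wells for no effect and buffer without enzyme for full effect; nearly all actives have a fitted effect of over 40% in size; top concentration of the series not given in the record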
# Target sequence (P25779 123-467 limits assumed): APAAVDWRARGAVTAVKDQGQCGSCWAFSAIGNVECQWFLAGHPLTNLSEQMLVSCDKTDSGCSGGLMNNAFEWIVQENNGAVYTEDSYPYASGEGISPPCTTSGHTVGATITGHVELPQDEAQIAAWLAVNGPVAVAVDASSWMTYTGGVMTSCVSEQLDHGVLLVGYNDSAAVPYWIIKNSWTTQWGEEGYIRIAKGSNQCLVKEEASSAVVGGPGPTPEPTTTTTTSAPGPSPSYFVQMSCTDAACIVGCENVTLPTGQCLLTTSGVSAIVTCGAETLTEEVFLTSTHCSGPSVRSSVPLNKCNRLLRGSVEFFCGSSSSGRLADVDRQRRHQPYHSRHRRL
#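 Purified cruzain (1.5 nM final) was preincubated with compounds for 15 min at room temperature in 100 mM sodium acetate pH 5.5, 5 mM DTT, 0.01% Triton X-100. Reaction started with 2 uM Z-FR-AMC; AMC fluorescence change over 60 s gave activity.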
# Cruzain noTriton – qHTS Assay for Promiscuous and Specific Inhibitors of Cruzain (without detergent) | Potency, µM, for the others: max response, negative = inhibition, most hits filed as inhibitors | Cruzipain (Trypanosoma cruzi), P25779 | actives 2.3% (n = 200,000) | purified cruzain, Z-FR-AMC fluorescence, no detergent;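 note: plate controls were enzyme without inhibitor for no effect and buffer without enzyme for full effect; nearly all actives have a fitted effect of over 40% in size; top concentration of the series not given in the record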
#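 Purified cruzain at 1.5 nM, pre-incubated 15 min with compound at room temperature in 100 mM sodium acetate pH 5.5, 5 mM DTT, 0.00005% Triton X-100. Reaction started with 2 uM Z-FR-AMC; AMC fluorescence increase over 60 s gives rate.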
# NS1 function inh – qHTS Assay for Inhibitors of Influenza NS1 Protein Function; S. cerevisiae slowed by influenza A NS1, growth recovery by OD600; actives 0.4% (n = 270,000); Potency, µM (highest dose often 46.1 µM), without a hit: at the top dose activity, positive = more growth; active means well fitted rising curve with a large enough effect; inconclusive means small, poorly fitted or top-dose-only effect; inactive means no such curve, though single readings can be large or run the other way; note: nearly all actives have a fitted effect of over 50% in size
#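 OD600 was taken as the measure of yeast growth restored by compound in an NS1-expressing S. cerevisiae strain. Cells had been washed out of glucose medium and diluted 1:100 into galactose -URA medium, pH 6.0.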
# Marburg entry inh – qHTS for inhibitors of binding or entry into cells for Marburg Virus | actives 1.8% (n = 300,000) | Marburg virus pseudotyped entry inhibition, cell reporter; control for the full effect not named in the record; about a third of the inactives were read at about 46 µM | Potency, µM (titrated, usually from 37.8 µM), inactives show top-dose activity change, negative = inhibition, usual class: inhibitors; active = well fitted inhibition curve with a large enough effect; inconclusive = small, poorly fitted or top-dose-only effect, or effect the other way; inactive = flat fitted curve, though single readings scatter; tested in HEK293 cells; about a fifth of its hits are not listed in these tables; note: % is set by controls: 0 for no effect and ±100 for the full control effect; luciferase read-out
# * marks the source's active call; other numbers are inactive results; ? = inconclusive; / = no result given; & = joins results of further samples; [ ] = another dose, or the depositor's remark. Unless noted, calls come from the whole dose curve; as a rule, active = well fitted curve in the direction sought with a large enough effect; inconclusive = small, poorly fitted or top-dose-only effect, or another doubt; inactive = no such curve, though single readings can be large; an effect the other way counts as inactive or inconclusive. Potency is the fitted concentration of half-maximal effect. Compounds as they come (roughly 4.7% active in at least one column).
SMILES,SARS PLP yeast,RE007 growth inh,StopGo reporter,LASV entry inh,Cruzain inh Det,Cruzain noTriton,NS1 function inh,Marburg entry inh
COc1ccc(S(=O)(=O)NC(C)C(=O)Nc2cccc(C(C)=O)c2)cc1 (stereo not given),1%,21%,2%,8%,-5.2%,-7%,-1%,?
COc1cccc(CNC(=O)c2cccc(N3CCCS3(=O)=O)c2)c1,/,/,-13%,15%[46.1 µM],2.1%,-1%,/,/
Cc1cc(F)ccc1S(=O)(=O)N1CCCOC1CNC(=O)C(=O)NCC(C)C (stereo not given),-5%,-1%,-5%,-13%,/,/,1%,-1%
COc1ccc(NC(=O)CN(C)CC(=O)Nc2cccc(C(F)(F)F)c2)cc1,-2%,3%,-27%,?,/,/,/,?
c1ccc([C@H]2CC3C[C@@H](c4ccccc4)N2O3)cc1,1%,4%,-15%,-7%,2.3%,8%,3%,-2%
O=S(=O)(NCc1ccccc1F)c1cccc(S(=O)(=O)N2CCOCC2)c1,0%,-13%,26%,-6%,/,/,1%,-11%
CCc1nc(N2CCN(c3nc(C)cc(C)n3)CC2)c2oc3ccccc3c2n1,3%,/,/,/,-3.1%,4%,0%,/
COC(=O)c1ccnc(/C=N/O)c1,-12%,-16%,9%,-1%,1.5%,7%,3%,7%
CCOc1cc(C)nc(N2CCC(C(=O)Nc3ccccc3OCC)CC2)n1,-5%,-7%,/,-13%,2.2%,-12%,-4%,-17%
COc1ccc(C(=O)C(CN2CCCC2)c2ccccc2)cc1 (stereo not given),-32%,?,16µM*,?,-0.9%,9%,-42%,?
Cc1csc(NC(=O)c2ccc(COc3ccccc3)o2)n1,-8%,120%,-10%,-11%,/,/,-33%,?
CN(C)c1nc(N)c([N+](=O)[O-])c(NCCO)n1,10%,27%,-19%,3%,-9.1%,-3%,-19%,3%
CCOc1ccc(OCC)c(NC(=O)CCSCCc2ccccn2)c1,1%,-19%,-5%,-9%[46.1 µM],/,/,/,-25%[46.1 µM]
N/C(=N\OC(=O)CCC1CCCC1)c1cccc([N+](=O)[O-])c1,-27%,25%,-17%,0%,-5.5%,-10%,-15%,14%
COc1ccccc1N1CCN(C(=O)C2CCCN(S(=O)(=O)c3ccc4c(c3)CCCN4C(C)=O)C2)CC1 (stereo not given),-1%,6%,28µM*,?,-0.8%,?,?,11µM*

# Single entries from the results shown:
# Cc1cc(F)ccc1S(=O)(=O)N1CCCOC1CNC(=O)C(=O)NCC(C)C (stereo not given) – NS1 function inh: 1%
# O=S(=O)(NCc1ccccc1F)c1cccc(S(=O)(=O)N2CCOCC2)c1 – NS1 function inh: 1%
# N/C(=N\OC(=O)CCC1CCCC1)c1cccc([N+](=O)[O-])c1 – LASV entry inh: 0%

# Going on with the list:
SMILES,SARS PLP yeast,RE007 growth inh,StopGo reporter,LASV entry inh,Cruzain inh Det,Cruzain noTriton,NS1 function inh,Marburg entry inh
COc1ccc(C(=O)NC2CC2)cc1OC1CCN(Cc2ccc(F)c(F)c2)CC1,3%,-2%,-8%,/,/,/,-1%,/
CN1C(=O)Cc2cc(S(=O)(=O)N3CCN(c4ccccc4F)CC3)ccc21,-2%,3%,?,6%[46.1 µM],/,/,18%,/
CC(C)N(C(=O)COC(=O)c1ccccc1C(=O)N1CCN(c2ccc(F)cc2)CC1)C(C)C,-13%,8%,-15%,-3%,2.0%,?,-1%,-10%&-10%
COc1ccc(N(CC(=O)NCc2ccc(Cl)cc2)S(=O)(=O)c2c(C)nn(C)c2C)cc1,-6%,-3%,-3%,/,/,/,-7%,/
COc1ccccc1OCCSc1nc(C)c(Cc2ccccc2)c(=O)[nH]1,0%,17%,3%,/,/,/,-4%,/
O=c1ccc2ccc(O)cc2o1,/,12%,0%&2%,/,-1.0%,?,/,/
CC(C)(C)C(=O)Nc1cc(-c2cccc(Br)c2)nn1-c1ccccc1,/,/,?,-4%[46.1 µM],-1.8%,11%,/,/
Cn1c(=O)c2c(C(=O)O)cc(-c3ccccc3)nc2n(Cc2ccccc2)c1=O,2%,10%,2%,/,/,/,14%,7%[46.1 µM]
CCOc1ccc(N2C(=O)CC(S/C(N)=N/N=C/c3cccs3)C2=O)cc1 (stereo not given),2%,5%,-14%,-17%,-0.2%,10µM*,10%,?
CCOC(=O)C1=CN(CC2CCCO2)C=C(C(=O)OCC)C1c1ccccc1C(F)(F)F (stereo not given),1%,-8%,?,-20%,/,/,-4%,?
COc1ccccc1NC(=O)COC(=O)c1ccccc1OCC(=O)Nc1ccc(SC(F)F)cc1,20%,33%,-18%,3%,-2.3%,?,-6%,-1%
COc1ccc(C(C(=O)NC2CCCCC2)N(C(=O)Cc2c[nH]c3ccccc23)c2ccc(NC(C)=O)cc2)cc1OC (stereo not given),-1%,15%,13%,-35%,0.1%,?,11%,-10%
CCCCOc1ccc(CNC(=O)c2cc3n(n2)CCCN(Cc2ccc(C)cc2)C3=O)cc1,/,/,-24%,?,-8.1%,?,/,/
COc1ccc(C(=O)c2nc3c(n2O)CCCCC3)cc1,1%,-26%,30%,12%,-0.7%,-19%,2%,1%
CC12CCC(C(=O)N(CC(O)CN3CCCCCC3)C1=O)C2(C)C (stereo not given),-21%,13%,-26%,5%,-1.1%,-3%,-3%,7%
CC(=O)c1cnc(Oc2cc(Cl)ccc2Cl)nc1C,0%,-2%,18%,/,/,/,6%,/
CC(C)C12CN3CC(C(C)C)(CN(C1)C3c1ccccn1)C2=O (stereo not given),/,/,6%,?,4.1%,2%,/,4%[46.1 µM]
Cc1cc(C(=O)COC(=O)c2n[nH]c3ccccc23)c(C)n1CC1CCCO1 (stereo not given),-9%,?,?,?,-0.1%,10%,19%,7.1µM*
O=S(=O)(c1ccccc1)c1nc(Cc2ccccc2)oc1N1CCOCC1,-2%,17%,1%,-8%,/,/,-1%,4%[46.1 µM]
CC1CC(C)CN(C(=O)COC(=O)c2cc([N+](=O)[O-])ccc2N2CCOCC2)C1 (stereo not given),-1%,0%,-18%,-14%[46.1 µM],/,/,/,?
O=C1c2ccccc2NC(c2ccccc2)N1Cc1ccccc1 (stereo not given),/,-10%,-23%,?,/,/,/,2%
CNS(=O)(=O)c1ccc(NC(=O)c2csc(C)c2)cc1,-1%,10%,49%[activator],/,/,/,5%,/
CN(C)c1ccc(/C=C2/C(=O)NC(=O)N(CCc3ccc(F)cc3)C2=O)cc1,-9%,17%,-2%,14%,-11%,-6%,-16%,-13%
COc1ccc(CN2CCN(Cc3cc4ccccc4o3)CC2CCO)c(F)c1 (stereo not given),-10%,-11%,0%,/,/,/,10%,/
N#Cc1c(-c2ccccc2)c(C#N)c2nc3ccccc3n2c1N,5%,-4%,?,-10%,-5.7%,-30%,17%,?
CC(C)NC(=O)COc1nncc2ccccc12,7%,5%,11%,1%,/,/,/,9%[46.1 µM]
CCc1ccc(C(=O)Nc2nc3ccccc3[nH]2)cc1,-7%,-17%,5.6µM*,?,/,/,-21%,?
CCN(CC)C(=O)Cn1c(=O)n(-c2ccc(Cl)cc2)c(=O)c2c3c(sc21)CCCCC3,/,/,-18%,-2%[46.1 µM],-2.7%,-5%,/,?
CC(C)(C)NC(=O)CSc1nc(Cc2ccccc2)nc2ccccc12,20%,26%,-1%,/,/,/,-22%,/
Cc1cc(C)c(NS(=O)(=O)c2ccc3c(c2)n(C)c(=O)n3C)c(C)c1,-1%,-7%,-12%,/,/,/,-3%,/

# Compounds above with a Cl atom (three):
SMILES,SARS PLP yeast,RE007 growth inh,StopGo reporter,LASV entry inh,Cruzain inh Det,Cruzain noTriton,NS1 function inh,Marburg entry inh
COc1ccc(N(CC(=O)NCc2ccc(Cl)cc2)S(=O)(=O)c2c(C)nn(C)c2C)cc1,-6%,-3%,-3%,/,/,/,-7%,/
CC(=O)c1cnc(Oc2cc(Cl)ccc2Cl)nc1C,0%,-2%,18%,/,/,/,6%,/
CCN(CC)C(=O)Cn1c(=O)n(-c2ccc(Cl)cc2)c(=O)c2c3c(sc21)CCCCC3,/,/,-18%,-2%[46.1 µM],-2.7%,-5%,/,?

# (list continues)
SMILES,SARS PLP yeast,RE007 growth inh,StopGo reporter,LASV entry inh,Cruzain inh Det,Cruzain noTriton,NS1 function inh,Marburg entry inh
O=C(O)CCCCCn1c(SCc2cc(=O)n3cc(Cl)ccc3n2)nc2ccsc2c1=O,16%,11%,0%,1%,-9.1%,24%,-17%,0%
O=C(COC(=O)[C@@H]1CCCN1S(=O)(=O)c1ccc(Cl)cc1)NCC(F)(F)F,0%,-6%,-26%,-5%,-0.7%,4%,-8%,-5%
O=C(CN1C(=O)CCS(=O)(=O)c2ccccc21)Nc1cccc(Cl)c1,19%,-7%,9%,-7%,-2.3%,2%,-2%,9%
Cc1ccc(C)c(CN2C(=O)c3ccccc3Sc3ccc(C(=O)NCc4ccco4)cc32)c1,/,/,-23%,?,1.1%,?,/,/
CC(NC(=O)Nc1ccc(Cl)cc1)c1ccccc1 (stereo not given),-3%,3%,-3%,/,/,/,-16%,/
Cc1ccc(NC(=O)C2CCN(S(=O)(=O)c3ccc4c(c3)NC(=O)CO4)CC2)cc1,3%,2%,?,-20%[46.1 µM],/,/,2%,-5%[46.1 µM]
Cc1oc2c(c(C)cc3oc(=O)c(CC(=O)NCCC(=O)O)c(C)c32)c1C,1%,-5%,-5%,16%,/,/,1%,8%[46.1 µM]
CCCCN(CC)C(=O)CSc1c2c(nc3ccc(Cl)cc13)CCCC2,/,/,?,2%[46.1 µM],-15%,-4%,/,-1%[46.1 µM]
O=C(CN1C(=O)c2ccccc2S1(=O)=O)NCCSCc1ccccc1Cl,2%,1%,2%,-18%[46.1 µM],/,/,3%,11%[46.1 µM]

# Screens from PubChem.
